PINK1 expr mod = A Quantitative High throughput Screen to Identify Chemical Modulators of PINK1 Expression; Potency, µM (highest dose often 76.6 µM), without a hit: top-dose activation (PINK1 increase), actives largely listed as activators; PINK1 immunofluorescence, high-content cytometry, 24 h; AID 624263, 2012; 410,000 tested, 0.2% active; active = well fitted activation curve with a large enough effect; inconclusive = small, poorly fitted or top-dose-only effect; inactive = flat fitted curve, though single readings scatter; cell line not stated here;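 note: potency is the fitted concentration of half-maximal effect; % of control where 0% means no effect; nearly all actives have a fitted effect of over 65% in size; a mitochondrial uncoupler was the plate control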
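Measures PINK1 amount and localization on or inside mitochondria by immunofluorescence. Stable cells get compounds at 5 concentrations for 24 hours before fixation and staining; CCCP controls included.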
Menin MLL FP FL = qHTS Assay for Inhibitors Targeting the Menin-MLL Interaction in MLL Related Leukemias: Competition With Fluorescein Labeled MLL-derived Peptide; FP activity change, % at 61.4 µM; 290,000 tested, under 10 active; Fluorescence polarization, fluorescein-MLL peptide displacement from menin; AID 1766, 2009; inconclusive = falling polarisation curve, or a change in total fluorescence; inactive = total fluorescence flat and polarisation flat or rising; no compound was filed as active; the % refers to the polarisation; negative = inhibition;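 note: % of control where 0% means no effect; inhibitors lower the polarisation; unlabelled MLL peptide was the positive control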
gsp antagonist = qHTS for Antagonists of gsp, the Etiologic Mutation Responsible for Fibrous Dysplasia/McCune-Albright Syndrome: qHTS; gsp-mutant cells, cAMP HTRF, 30 min; control for the full effect not named in the record; Potency, µM (highest dose often 76.9 µM), for the others: at the highest dose activity change, negative = inhibition, most hits filed as inhibitors; 340,000 tested, 0.4% active; active = falling curve of any shape with a large fitted effect; inconclusive = falling curve, mostly with a smaller effect; inactive = flat or rising curve; cell line not stated here;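 note: intracellular cAMP measured with PDE inhibitor Ro 20-1724 present during compound exposure; potency is the fitted concentration of half-maximal effect; % is set by controls: 0 for no effect and ±100 for the full control effect; nearly all actives have a fitted effect of over 65% in size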
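HTRF cAMP read-out (cAMP-d2 plus anti-cAMP antibody-K in lysis buffer, 30 min RT). Before lysis, cells are exposed to compounds with […] for 30 min at 37C in DPBS containing Ca/Mg, BSA and Tween 20.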
ClpP mod = qHTS Assay for Activators of ClpP. purified B. subtilis ClpP, FRET peptide cleavage, 20 min. Potency, µM (doses to about 57.5 µM), for the others: at the highest dose activity change, negative = active. 340,000 tested, 1.9% active; active = well fitted falling curve with a large enough effect; inconclusive = small, poorly fitted or top-dose-only effect; inactive = no such curve, though single readings can be large or run the other way; note: potency is the fitted concentration of half-maximal effect; the source files actives as falling curves though it sought activators and does not explain the sign; nearly all actives have a fitted effect of over 65% in size; many hits overshoot -100%
Target sequence (P80244 whole entry, looked up): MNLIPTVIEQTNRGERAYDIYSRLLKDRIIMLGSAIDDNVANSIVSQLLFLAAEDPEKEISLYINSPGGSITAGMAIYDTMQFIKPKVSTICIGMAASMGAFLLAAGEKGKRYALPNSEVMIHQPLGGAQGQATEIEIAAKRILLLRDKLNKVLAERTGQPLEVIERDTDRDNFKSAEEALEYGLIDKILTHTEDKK
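Purified B. subtilis ClpP, 10 microg/mL final in Tris/HCl pH8 with KCl, BSA, glycerol and Tween-20, cleaved an Abz/nitrotyrosine-quenched decapeptide. Fluorescence (ex 320, em 430) was read at 0 and 20 min at room temperature. Delta was normalized to 5.8 microM ADEP and DMSO/no-enzyme controls.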
gsp ag = qHTS for Agonist of gsp, the Etiologic Mutation Responsible for Fibrous Dysplasia/McCune-Albright Syndrome: qHTS; gsp mutant cells, cAMP HTRF, 30 min; control for the full effect not named in the record; Potency, µM (series often up to 76.9 µM), for inactives: at the highest dose activation (cAMP increase), hits mostly activators; 340,000 tested, 0.13% active; AID 624287, 2012; active = well fitted activation curve with a large enough effect; inconclusive = small, poorly fitted or top-dose-only effect, or another doubt; inactive = no such curve, though single readings can be large or run the other way; cell line not stated here;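 note: phosphodiesterase inhibitor Ro 20-1724 added with compounds to block cAMP breakdown; potency is the fitted concentration of half-maximal effect; nearly all actives have a fitted effect of over 60% in size; about a fifth of the inactives were tested at one dose only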
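Cells in DMEM/10% FBS with G418 were pretreated with compounds in DMSO plus […] (300 uM stock) for 30 min at 37C. cAMP was measured by HTRF (cAMP-d2 plus anti-cAMP antibody-K) after 30 min at room temperature.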
Sfp PPTase inh = qHTS Assay for Inhibitors of Bacillus subtilis Sfp phosphopantetheinyl transferase (PPTase). Biochemical Sfp PPTase activity, qHTS. Potency, µM, inactives show max response, negative = inhibition, usual class: inhibitors. 310,000 tested, 3.5% active. AID 1490, 2009; active = well fitted inhibition curve with a large enough effect; inconclusive = small, poorly fitted or top-dose-only effect, or another doubt; inactive = no such curve, though single readings can be large or run the other way;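 note: the enzyme is Sfp with the accession as filed and its product quenches rhodamine fluorescence; potency is the fitted concentration of half-maximal effect; 0% = enzyme reaction without inhibitor and -100% = no enzyme wells; top concentration of the series not given in the record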
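Fluorescence-quenching assay: 15 nM Sfp-PPTase preincubated 15 min at room temperature with compound, then 5 uM rhodamine-CoA and 12.5 uM BHQ-2-labelled YbbR peptide added. Fluorescence (ex 525/em 598 nm) read at start and after 30 min; difference gives rate.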
D2 ag = Beta-Arrestin HTS for Positive Allosteric Modulators of the Human D2 Dopamine Receptor: Agonists | D(2) dopamine receptor (Homo sapiens), P14416 | activation, % (no concentration beside the values) | 360,000 tested, 0.084% active | DiscoveRx PathHunter D2 beta-arrestin, luminescence, 90 min; 100% = 57 uM dopamine signal; in the data active = activation above about 40%; inconclusive = about 15% to 40%; inactive = below about 15%; note: compound concentration not given in the record; the text of the record calls up to 30% inactive
Target sequence (P14416 whole entry, looked up): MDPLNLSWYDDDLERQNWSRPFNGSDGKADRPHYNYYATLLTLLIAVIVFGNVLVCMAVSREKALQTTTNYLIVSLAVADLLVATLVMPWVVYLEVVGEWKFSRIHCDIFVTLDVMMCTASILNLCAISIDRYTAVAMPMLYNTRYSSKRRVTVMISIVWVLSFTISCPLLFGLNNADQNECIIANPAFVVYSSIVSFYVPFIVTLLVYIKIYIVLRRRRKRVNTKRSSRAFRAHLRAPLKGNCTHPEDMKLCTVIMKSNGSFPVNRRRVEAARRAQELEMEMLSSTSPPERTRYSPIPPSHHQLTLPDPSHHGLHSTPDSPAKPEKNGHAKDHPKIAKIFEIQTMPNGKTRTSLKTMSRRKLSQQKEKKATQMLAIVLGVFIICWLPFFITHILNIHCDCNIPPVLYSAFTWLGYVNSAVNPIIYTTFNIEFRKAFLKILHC
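Agonist mode: compounds alone added to overnight-plated D2 PathHunter cells for 90 min at 37 C, with 57 uM final dopamine (EC100) defining full response. Beta-arrestin recruitment detected by chemiluminescent reagent, read after 1 h at ambient temperature.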
* hit, by the source's call; ? = inconclusive; . = not tested or not shown; [ ] = dose if it differs, or a comment.

SMILES,PINK1 expr mod,Menin MLL FP FL,gsp antagonist,ClpP mod,gsp ag,Sfp PPTase inh,D2 ag
O=C(NC1CCCC1)C(c1ccncc1)N(C(=O)Cc1cccs1)c1cccc(F)c1 (centres undefined),11%,.,3%,.,?,8%,3.6
COc1ccc(CNC(=S)Nc2cccc(C)c2C)cc1,1.2%,0.7,5%,-1.9%,-3%,14%,-4.6
O=C(Nc1ccc(Br)cc1)C1CC(O)CN1C(=O)OCc1ccccc1 (centres undefined),2.0%,8.4,5%,.,-2%[15.4 µM],13%,-2.0
CC(C)CCNC(=O)COC(=O)/C=C/c1ccc2ccccc2n1,-1.7%,-1.7,-5%,-3.0%,-5%[15.4 µM],10%,-0.7
NC(=O)CN1C(=O)NC2(CCOc3ccccc32)C1=O (centres undefined),-0.3%,-2.5,7%,.,5%[15.4 µM],15%,-6.4
CC(=O)/C(=N\Nc1ccc(Cl)cc1Cl)Sc1nnc(-c2ccccc2)n1-c1ccccc1,23%,-1.9,13%,-18%,?,4%,-3.8
COc1ccccc1CN(C)C(=O)c1ccc(S(=O)(=O)Nc2c(C)n(C)n(-c3ccccc3)c2=O)cc1,-0.5%,.,-9%,.,24%,.,-0.7
O=C1c2cccc3cc([N+](=O)[O-])cc(c23)C(=O)N1/N=C/c1ccc(O)cc1O,4.0%,?,?,.,-11%[15.4 µM],-13%,-2.5
S=C(c1cn(Cc2ccc(Br)cc2)c2ccccc12)N1CCOCC1,0.5%,7.9,-20%,-2.4%,-3%,23%,-2.5
Cc1ccc(C)c(NC(=O)CS(=O)(=O)c2c[nH]c3ccccc23)c1,-1.5%,4.4,1%,-0.3%,?,6%,-0.8
Cc1ccccc1CNC(=O)C1CCC(=O)N(C2CC2)C1 (centres undefined),0.0%,.,0%,0.3%,1%,9%,-0.8
O=C(NC1CCCCC1)N1CCc2[nH]c3ccccc3c2C1,-1.5%,-13,0%,-4.7%,-4%,13%,0.0
O=C(Oc1ccc(OC(=O)C2CCC2)cc1)C1CCC1,4.2%,4.3,10%,0.3%,-17%[15.4 µM],-20%,-12
CCC(=O)NC(=S)Nc1cccc(NC(=O)c2ccco2)c1,0.1%,-0.2,3%,.,14%[15.4 µM],-18%,-2.9
CCc1cc2c(SCC(=O)NCC3CCCO3)ncnc2s1 (centres undefined),2.3%,.,9%,-2.3%,-32%[inhibitor],.,-4.7
O=S(=O)(c1ccccc1)[C@@]1(c2ccccc2)C[C@@H]2ON=C(c3cccc(-c4ccccc4)c3)[C@@H]2C1,2.3%,.,2%,-1.1%,.,.,-0.5
CN(C(=O)CSc1nnc(C2CC2)n1-c1ccccc1)C1CCS(=O)(=O)C1 (centres undefined),-0.9%,.,14%,0.8%,-8%,.,5.8
COc1ccc(/C=N/N=C2/NC(=O)C(CC(=O)O)S2)cc1OCc1ccccc1Cl (centres undefined),2.3%,-1.5,-8%,-2.6%,5%,12%,-0.2
Nc1ccccc1Nc1cc(-c2ccccc2)nn1-c1ccccc1,2.4%,6.3,-11%,0.3%,-4%,-10%,7.1
CCc1nc2c(OCc3ccc(F)cc3)cccn2c1N(C)C(=O)c1ccncc1,0.6%,.,.,0.8%,.,.,-1.5
Cc1cc(C)c(C)c(OCCOCCN2CCN(C)CC2)c1,-0.6%,0.9,4%,-0.8%,-44%[inhibitor],1%,-5.3
CCn1c(=O)c2sccc2n2c(CCCC(=O)NCCc3ccc(S(N)(=O)=O)cc3)nnc12,-0.5%,-3.7,18%,.,?,16%,-2.5
COc1cccc(CN2C(=O)CCC2(C)C(=O)NC2CCCCC2)c1 (centres undefined),5.6%,5.7,3%,-3.6%,14%,0%,-6.3
COc1ccc(C(=O)Nc2ccccc2C(=O)N/N=C/c2ccccn2)cc1OC,-2.0%,-9.9,-12%,.,13%[15.4 µM],23%,14
CCOC(=O)c1ccccc1NC(=O)CSc1ccc(-c2ccccn2)nn1,-0.7%,.,-16%,3.4%,5%,-5%,4.5

New compounds follow.
SMILES,PINK1 expr mod,Menin MLL FP FL,gsp antagonist,ClpP mod,gsp ag,Sfp PPTase inh,D2 ag
CCOc1ccc(N(CC(=O)Nc2nccs2)S(=O)(=O)c2c(C)noc2C)cc1,9.9%,0.5,-11%,1.6%,5%,7%,-2.6
Cn1cc(CN2CCC(n3nccc3NC(=O)C3CCCC3)CC2)cn1,1.5%,.,10%,-1.8%,-6%,17%,-2.1
Cc1ccc(CNC(=O)C(=O)NCCC2CCCCN2S(=O)(=O)c2ccccc2)cc1 (centres undefined),-0.6%,.,2%,-0.8%,-6%[15.4 µM],.,-1.7
CCOc1ccc(S(=O)(=O)N2CCCCC2)cc1NC(=O)C1=COCCO1,4.1%,.,-9%,-3.0%,?,.,2.8
CCC(CCC(C)C1CCC2C3CC=C4CC(OC(C)=O)CC[C@@]4(C)C3CC[C@@]12C)C(C)C (some centres undefined),-1.7%,1.1,.,.,.,11%,.
O=C(Nc1ccc(F)cc1F)N1CCN(c2ncccn2)CC1,-1.1%,2.9,5%,-5.3%,-15%,14%,-0.3
CCOc1cc(NC(=O)c2cccs2)c(OCC)cc1NC(=O)CCC(=O)NCC1CCCO1 (centres undefined),0.6%,0.5,-8%,.,-17%[15.4 µM],20%,-3.1
Nc1ccn(CC(=O)NCc2ccccc2)c(=O)n1,-0.2%,.,7%,-3.8%,.,.,-1.7
O=C(NCCCN1CCOCC1)c1cc(-c2ccc(F)cc2)no1,0.6%,0.3,0%,-11%,?,13%,-0.3
Cc1ccccc1NC(=S)N(Cc1cccs1)C1CCCC1,-0.6%,1.2,3%,.,-2%[15.4 µM],8%,-3.1
CCN(CCCNC(=O)COc1cc(=O)n(CC)c2ccccc12)Cc1ccccc1,-1.4%,3.2,4%,-0.3%,-9%,11%,-1.5
C=CCSc1nnc(C)n1-c1ccc(Cl)cc1,-2.5%[38.3 µM],2.3,7%,-1.2%,-1%,8%,-1.3
Cc1noc(NC(=O)c2ccc(F)cc2)c1C#N,0.5%,0.5,-11%,-1.4%,?,-5%,-2.0
COc1ccc(C(=O)OCC(=O)NCCCc2ccccc2)cc1OC,0.4%,-4.8,2%,-2.3%,?,12%,7.6
O=C(Nc1ccc2c(c1)CCC2)Nc1ccc(F)cc1F,0.8%,.,7%,-2.0%,3%,2%,2.8
CCOc1ccccc1NC(=O)C1CCC(CNc2c(N3CCOCC3)c(=O)c2=O)CC1 (centres undefined),2.8%,2.0,3%,-0.9%,-37%,-14%,0.1
CC1(C(=O)NCC2CC2)CCN1C(=O)C1(c2ccccc2)CC1 (centres undefined),0.8%,.,.,-0.2%,.,.,-5.0
Cc1cc(C)nc(N2N=C(c3ccccc3)CC2=O)n1,0.0%,0.7,6%,-2.1%,-57%[inhibitor],-13%,-3.5
COc1ccc(C(=O)Nc2nnc(S(=O)(=O)Cc3ccccc3)s2)cc1,1.1%,-0.4,-1%,.,2%,8%,-5.0
CCCCn1c(N)c(N(CCOC)C(=O)c2ccc(NC3CC3)c([N+](=O)[O-])c2)c(=O)[nH]c1=O,-1.9%,.,10%,-6.6%,6%,.,6.5
O=C(CCN1C(=O)c2ccccc2C1=O)OCN1C(=O)c2ccccc2C1=O,-0.3%,3.1,5%,-2.6%,25%,15%,-2.9
CC1(C)CC(=O)C2=C(C1)Nc1ncnn1C2c1cccs1 (centres undefined),0.4%,-0.3,5%,?,?,16%,-0.7
CC(=O)N1CCc2ccc(N)cc21,-1.8%,.,-6%,.,?,.,-1.3
NS(=O)(=O)c1ccc(Nc2c([N+](=O)[O-])cncc2[N+](=O)[O-])cc1,-1.9%,-3.1,2%,.,-41%[inhibitor],15%,5.7
COc1ccc2cnn(-c3ccc(OC(F)(F)Cl)cc3)c(=O)c2c1OC,0.5%,-1.8,-1%,.,-1%,15%,-0.6

Additional structures.
SMILES,PINK1 expr mod,Menin MLL FP FL,gsp antagonist,ClpP mod,gsp ag,Sfp PPTase inh,D2 ag
C/C(=C\C(=O)c1ccc(Br)cc1)Nc1cccc(Cl)c1,-0.5%,.,11%,-0.4%,1%,.,0.0
O=C(CCN1C(=O)/C(=C/c2ccc3c(c2)OCO3)SC1=S)NNC(=O)c1cccnc1,1.7%,5.7,12%,.,-1%[15.4 µM],-14%,5.0
Cc1cscc(C)c1=S,-0.4%,.,.,0.1%,-4%,.,-2.5
Cc1cccc(NS(=O)(=O)c2ccc3[nH]c(=O)oc3c2)c1C,-1.3%,.,-11%,1.2%,1%[15.4 µM],.,-8.9
CC(C(=O)N1CCN(c2ccccc2)CC1)c1ccc([N+](=O)[O-])cc1 (centres undefined),3.2%,-0.6,3%,-4.3%,29%,6%,-2.3
COc1cc(C(=O)OCC(=O)N2CC(C)OC(C)C2)cc(OC)c1OC (centres undefined),0.4%,-2.8,8%,.,16%[15.4 µM],-1%,-5.2
N#C/C(=C\c1ccc(/C=C(/C#N)c2nn(CCO)c(N)c2C#N)cc1)c1nn(CCO)c(N)c1C#N,12%,-2.9,9%,-2.2%,10%,22%,-0.7

From PubChem

The order is random, and some 5.1% of all compounds hit somewhere here.
